PKD1 inh = PKD1 (human) kinase inhibition | Q15139 | PKD1 kinase fluorescence polarization assay | inhibition, %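 (about 10 µM by stock and volumes)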 | 200,000 compounds, 0.056% hits | AID 797;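 active = inhibition of 50% or more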;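 also: controls were vehicle for no effect and a reference inhibitor for full effect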
Target sequence (Q15139 whole entry, looked up): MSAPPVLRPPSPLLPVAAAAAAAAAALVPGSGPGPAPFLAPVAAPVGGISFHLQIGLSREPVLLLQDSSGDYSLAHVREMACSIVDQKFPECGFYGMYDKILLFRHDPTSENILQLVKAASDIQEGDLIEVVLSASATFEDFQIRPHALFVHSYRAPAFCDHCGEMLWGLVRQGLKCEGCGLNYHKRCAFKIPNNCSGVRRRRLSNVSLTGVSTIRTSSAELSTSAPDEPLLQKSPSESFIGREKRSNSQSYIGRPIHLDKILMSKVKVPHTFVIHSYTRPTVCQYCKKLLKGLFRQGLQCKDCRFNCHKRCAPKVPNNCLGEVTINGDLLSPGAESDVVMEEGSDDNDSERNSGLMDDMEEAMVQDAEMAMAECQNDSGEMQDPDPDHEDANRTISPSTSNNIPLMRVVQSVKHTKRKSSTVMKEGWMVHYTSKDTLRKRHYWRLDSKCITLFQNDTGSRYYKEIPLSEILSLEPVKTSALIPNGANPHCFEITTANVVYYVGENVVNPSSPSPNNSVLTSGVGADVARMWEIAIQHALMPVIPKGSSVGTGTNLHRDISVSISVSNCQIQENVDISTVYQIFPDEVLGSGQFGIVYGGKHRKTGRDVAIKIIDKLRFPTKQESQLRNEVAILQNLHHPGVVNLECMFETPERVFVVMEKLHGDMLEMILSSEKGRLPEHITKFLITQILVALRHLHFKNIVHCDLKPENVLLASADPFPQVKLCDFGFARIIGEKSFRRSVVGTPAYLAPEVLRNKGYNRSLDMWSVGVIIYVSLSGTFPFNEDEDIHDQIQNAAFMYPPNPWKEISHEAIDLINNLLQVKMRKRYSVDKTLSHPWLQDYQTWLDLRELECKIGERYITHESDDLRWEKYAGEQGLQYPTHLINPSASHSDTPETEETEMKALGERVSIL
INS promoter inh = TRM-6 insulin promoter activity inhibition; TRM-6 cells (human fetal islet line), insulin promoter-eGFP reporter, imaging; reporter expression induced with tamoxifen; inhibition, % at 2 µM; 130,000 compounds, 0.9% hits; AID 1273;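 active = inhibition above the mean plus 3 SD, with well images judged a real hit on visual review, cut at about 60% in these data, passing the limit was not always enough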
HSV replic up = increases HSV replication in cells; HSV replication augmentation in cells, fold increase; maximum fold increase; 220,000 compounds, 0.005% hits; AID 1956;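 active = peak rise of 1.5-fold or more in the series; tested in PC3 cells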;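 also: first round at 10 µM; read as green reporter fluorescence; hits show the peak of a series up to 25 µM; 1 = signal of infected wells without compound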
RGS16-Gao = modulates binding between human RGS16 and Galphao; binding response (% of control), % at 10 µM; AID 1441; bead-based flow cytometry RGS16-Galphao binding, fluorescence; actives lie on both sides; 220,000 compounds, 0.38% hits; O15492+P09471;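 active = below 25% or above 175%, edge rows of some plates excepted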;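 also: Galphao activated by GDP with aluminum fluoride before binding; 100% = wells without compound and 0% = beads without RGS; some results beyond the cut were filed as inactive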
GALR2 agonist = activates the human galanin receptor 2; O43603; GALR2-expressing cells, agonist activation read-out; activation, %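 (tested at 5 µM)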; 140,000 compounds, 0.48% hits;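 active = above mean plus 3 SD of all compounds, about 5% in these data, not always enough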;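 also: 0% = vehicle buffer wells and 100% = reference agonist at full effect; tested in CHO reporter cells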
INS promoter inh cell count = recorded beside INS promoter inh, whose call it bears; normalized cell count, %; measured here: cell count, toxicity; reference of the scale not given here;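 cells exposed to compound for 48 h; stained nuclei by imaging scaled within each plate; lower means fewer cells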
HSV replic up primary fold = recorded beside HSV replic up, whose call it bears; fold increase; compound at 10 µM; measured here: primary screen fold increase 10 uM; tested in PC3 cells;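 GFP signal in the first replicate; 1 = infected wells without compound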
Active calls of the source: *; i = inactive; · = no result given.

Order of values – PKD1 inh, INS promoter inh, INS promoter inh cell count, HSV replic up, HSV replic up primary fold, RGS16-Gao, GALR2 agonist
#1 CC(C)(C)c1ccc(-c2nnc(SCC(=O)NC3CCS(=O)(=O)C3)n2N)cc1 (centres undefined)
  -4, ·, ·, i, 1, 112, ·
#2 Cc1cc2cc(CNC(=O)c3cccc([N+](=O)[O-])c3)ccc2n1C
  -9, 22, 83, i, 1.1, 100, 0.0
#3 CCCOC(=O)C1=C(C)NC2=C(C(=O)CCC2)C1c1cccs1 (centres undefined)
  4, ·, ·, i, 0.9, 12, -1.8
#4 Cc1nc2ncnn2c(C)c1CCC(=O)NCCc1ccccc1
  -11, 0, 152, i, 0.96, 101, 0.7
#5 O=C(CCS(=O)(=O)c1cc(Br)cc2c1N(C(=O)C1CC1)CC2)NCC1CCCO1 (centres undefined)
  -6, 18, 130, i, 1.2, 100, -2.0
#6 CCNc1nc(N)nc(Oc2ccc(OCC)nn2)n1
  -4, 20, 151, i, 0.95, 103, -1.0
#7 COc1ccc(NC(=O)C2CCN(C(=O)c3ccccc3)CC2)cc1OC
  -2, ·, ·, i, 0.96, 76, -1.5
#8 N#Cc1c(Nc2ccc(F)cc2)sc(C(=O)c2ccc(F)cc2)c1N
  5, ·, ·, i, 0.9, 104, -0.3
#9 COc1cnc(SCCC(F)=C(F)F)[nH]c1=O
  6, ·, ·, i, 0.66, 107, ·
#10 COc1cc(OC)c(N(C)S(=O)(=O)c2cccc(C(=O)NC3=NCCS3)c2)cc1Cl
  ·, ·, ·, i, 0.93, 103, ·
#11 Cc1cc(Cl)ccc1OCCCC(=O)N/N=C/c1cccc([N+](=O)[O-])c1
  -5, 46, 128, i, 0.91, 102, -0.3
#12 CCCOC(=O)c1ccc(O)c(OC)c1
  -4, ·, ·, i, 1, 118, ·
#13 COc1cc(C)nc(Oc2ccc(OCCOc3ccccc3)nn2)n1
  -5, ·, ·, i, 0.97, 94, ·
#14 COC(=O)c1ccc(/C=N\NC(=O)CC(=O)NCCc2ccccc2)cc1
  -11, ·, ·, i, 0.92, 103, ·
#15 COc1ccc(Cn2c(C)c(C)c(C#N)c2NC(=O)Nc2cccc(C)c2)cc1
  -9, -12, 90, i, 1, 98, -2.5
#16 Cc1ccccc1OCC(=O)NN1CCN(C)CC1
  0, ·, ·, i, 0.98, 101, -1.0
#17 Cc1ccccc1-n1c(-c2csc(C)c2C)n[nH]c1=S
  -12, -6, 99, i, 1.1, 55, -0.9
#18 CC(=O)Nc1cc(NC(C)=O)c(CC(C)C)s1
  -7, 27, 107, i, 1, 119, -0.1
#19 Cc1cccc(N2CCN(c3ccc(C(N)=O)cc3[N+](=O)[O-])CC2)c1C
  -4, -6, 97, i, 0.93, 93, ·
#20 O=C(CN1C(=O)c2ccccc2C1=O)Nc1nc(-c2cccc([N+](=O)[O-])c2)cs1
  -3, -14, 72, ·, ·, 101, -1.2
#21 c1ccc(-n2ncc3c(NCC4CCCO4)ncnc32)cc1 (centres undefined)
  -4, ·, ·, i, 1, 112, -1.0
#22 CSCCC(NC(=O)C12CC3CC(CC(C3)C1)C2)C(=O)OCC(=O)c1ccc(C)cc1 (centres undefined)
  -8, ·, ·, i, 0.79, 103, -0.2
#23 COc1ccc(/C=C/C(=O)OCC(=O)Nc2ccc(S(N)(=O)=O)cc2)cc1OC
  1, -83, 97, i, 0.96, 102, ·
#24 COc1ccc(NC(=O)CCOc2ccccc2)cc1
  -7, -5, 108, i, 0.96, 98, -4.7
#25 Cc1[nH]c2ccccc2c1/C=N/NC(=O)c1cc(-c2ccccc2)n[nH]1
  ·, ·, ·, i, 0.81, 102, ·
#26 CCOC(=O)Nc1sc(C)nc1-c1ccccc1
  -17, ·, ·, i, 0.95, -6, -1.9
#27 CCN(Cc1ccccc1)S(=O)(=O)c1ccc(S(=O)(=O)N2CCN(CCC#N)CC2)cc1
  -2, ·, ·, i, 1.3, 101, -1.5
#28 O=C(OC1CSc2nc3ccccc3n2C1)c1ccco1 (centres undefined)
  -9, 23, 90, i, 0.8, 106, -1.2
#29 Cc1ccc(-c2n[nH]c(=O)c3ccccc23)cc1S(=O)(=O)NCCN1CCOCC1
  -2, ·, ·, i, 0.64, 69, -2.4
#30 COc1ccc(CNC(=O)COC(=O)CCc2c[nH]c3ccccc23)cc1
  -6, 0, 67, i, 1.1, 142, ·

Some of these compounds in order of molecular weight, lowest first.
Order of values – PKD1 inh, INS promoter inh, INS promoter inh cell count, HSV replic up, HSV replic up primary fold, RGS16-Gao, GALR2 agonist
#24 COc1ccc(NC(=O)CCOc2ccccc2)cc1
  -7, -5, 108, i, 0.96, 98, -4.7
#21 c1ccc(-n2ncc3c(NCC4CCCO4)ncnc32)cc1 (centres undefined)
  -4, ·, ·, i, 1, 112, -1.0
#7 COc1ccc(NC(=O)C2CCN(C(=O)c3ccccc3)CC2)cc1OC
  -2, ·, ·, i, 0.96, 76, -1.5
#15 COc1ccc(Cn2c(C)c(C)c(C#N)c2NC(=O)Nc2cccc(C)c2)cc1
  -9, -12, 90, i, 1, 98, -2.5
#22 CSCCC(NC(=O)C12CC3CC(CC(C3)C1)C2)C(=O)OCC(=O)c1ccc(C)cc1 (centres undefined)
  -8, ·, ·, i, 0.79, 103, -0.2
#10 COc1cc(OC)c(N(C)S(=O)(=O)c2cccc(C(=O)NC3=NCCS3)c2)cc1Cl
  ·, ·, ·, i, 0.93, 103, ·
#27 CCN(Cc1ccccc1)S(=O)(=O)c1ccc(S(=O)(=O)N2CCN(CCC#N)CC2)cc1
  -2, ·, ·, i, 1.3, 101, -1.5

Entries of single compounds, quoted from the list.
O=C(OC1CSc2nc3ccccc3n2C1)c1ccco1 (centres undefined) as listed: PKD1 inh: -9; INS promoter inh: 23; INS promoter inh cell count: 90; HSV replic up: i; HSV replic up primary fold: 0.8; RGS16-Gao: 106; GALR2 agonist: -1.2
Cc1ccc(-c2n[nH]c(=O)c3ccccc23)cc1S(=O)(=O)NCCN1CCOCC1 as listed: PKD1 inh: -2; INS promoter inh: ·; INS promoter inh cell count: ·; HSV replic up: i; HSV replic up primary fold: 0.64; RGS16-Gao: 69; GALR2 agonist: -2.4

More records:
Order of values – PKD1 inh, INS promoter inh, INS promoter inh cell count, HSV replic up, HSV replic up primary fold, RGS16-Gao, GALR2 agonist
#31 COc1ccccc1NC(=O)Nc1ccc2c(c1)OCCO2
  -4, 26, 112, i, 1, 107, -1.5
#32 O=c1nc(SCc2ccc(Cl)cc2)nc(-c2ccccc2)[nH]1
  ·, ·, ·, i, 1, 105, ·
#33 Cc1nnc(NC(=O)CC(NC(=O)C(F)(F)F)c2ccccc2)s1 (centres undefined)
  9, ·, ·, i, 1.1, 106, -1.6
#34 CCCCOC(=O)Nc1sc2c(c1C(=O)OC)CCC2
  -1, 30, 76, i, 0.97, 105, -1.6
#35 Cc1nn(C)c(N)c1-c1ccccc1
  1, 0, 74, i, 0.95, 118, ·
#36 CCNC(=S)N(CCc1c(C)[nH]c2ccc(C)cc12)Cc1cc(OC)c(OC)c(OC)c1
  -17, -33, 83, ·, ·, ·, -0.5
#37 CN(CC(=O)Nc1ccc(Cl)cc1)C(=O)c1cccc(S(=O)(=O)N(C)C)c1
  -16, ·, ·, i, 1, 110, -0.2
#38 OCCC1CN(Cc2nc3ccccc3s2)CCN1C1CCCC1 (centres undefined)
  6, ·, ·, i, 1, 111, ·
#39 Cc1ccc(S(=O)(=O)Nc2ccc(-c3nc4cc(NS(=O)(=O)c5ccc(C)cc5)ccc4o3)cc2)cc1
  -11, -11, 106, i, 0.65, 53, -1.0
#40 COc1cccc(CN(C)CC(=O)Nc2ccccc2C(=O)Nc2ccccc2)c1OC
  -4, ·, ·, i, 0.96, 102, ·
#41 CCN(CC)S(=O)(=O)c1ccc2c(c1)[nH]c(=S)n2CC
  2, 47, 136, i, 0.91, 95, ·
#42 O=C(COC(=O)C1=COCCO1)Nc1ccc2c(c1)OCO2
  -4, 39, 109, i, 0.95, 118, 0.4
#43 ClCC1=Nc2cccc3cccc(c23)N1
  ·, ·, ·, i, 0.85, 99, ·
#44 CCOCCCn1c(-c2ccc(Cl)cc2)n[nH]c1=S
  1, -457, 59, i, 0.74, 95, -1.8
#45 COC(=O)C1=C(C)NC(=S)NC1c1ccc(-c2ccccc2C(=O)OC)o1 (centres undefined)
  3, -429, 53, i, 0.97, 145, ·
#46 O=C(NC(=S)N1CCCc2ccccc21)c1ccc(Cl)cc1
  -6, -22, 98, i, 1.1, 90, -0.7
#47 O=C(NCc1ccncc1)C(=O)Nc1ccc2c(c1)OCO2
  -5, ·, ·, i, 0.97, 101, ·
#48 CCCCOc1ccc(NC(=O)[C@@H]2CCCN2C(=O)C2CCN(S(=O)(=O)c3ccc(C)cc3)CC2)cc1
  -6, -50, 93, i, 0.74, 97, -2.6
#49 O=[N+]([O-])c1ccccc1S(=O)(=O)Oc1ccccc1/C=N/n1cnnc1
  -13, 27, 101, i, 0.89, 106, -1.8
#50 Cc1ccc(CN2CCN(Cc3cnc(N(C)C)s3)CC2CCO)o1 (centres undefined)
  1, ·, ·, i, 0.98, 103, ·
#51 O=C(O)C1CC=CCC1C(=O)N1CCc2ccccc21 (centres undefined)
  -1, 38, 68, i, 0.93, 95, -1.4
#52 Cc1ccc(Cl)c2c1NC(=O)C2(O)CC(=O)c1ccc(F)cc1 (centres undefined)
  6, -24, 37, i, 1.1, 102, -3.8
#53 CCCOc1ccccc1C1NC(=O)NC(C)=C1C(=O)OCCOC (centres undefined)
  -2, -48, 77, i, 0.93, 108, -0.7
#54 CSc1ccc(CN(C)CC(=O)Nc2ccc(C)cc2Br)cc1
  -10, -50, 69, i, 1, 95, -1.5
#55 COc1ccc(CNC(=O)CS(=O)CC(=O)O)cc1OC (centres undefined)
  1, ·, ·, i, 0.98, 98, ·
#56 CCOC(=O)N1CCC(NC(=O)c2ccc3snnc3c2)CC1
  -10, ·, ·, i, 0.73, 103, -1.6
#57 CN(C)S(=O)(=O)c1ccc(Cl)c(NC(=O)CSc2nnnn2-c2ccc(O)cc2)c1
  7, 56, 138, i, 1, 104, ·
#58 O=C(CCN1C(=O)c2ccccc2C1=O)Nn1cnnc1
  -3, ·, ·, i, 0.84, 106, -1.1
#59 COc1cc(OC)c(C(=O)NC2CC(C)(C)NC(C)(C)C2)cc1OC
  -6, 69, 48, i, 0.95, 100, -3.1
#60 CCCNS(=O)(=O)c1ccc(CCC(=O)Nc2ccc3c(c2)OCCO3)cc1
  -8, -17, 91, i, 0.97, 106, -0.4

Down the list, as entered above:
HSV replic up for entries 11–22, in order: i, i, i, i, i, i, i, i, i, ·, i, i

Next part
Order of values – PKD1 inh, INS promoter inh, INS promoter inh cell count, HSV replic up, HSV replic up primary fold, RGS16-Gao, GALR2 agonist
#61 Cc1nn(-c2ccccc2)nc1C(=O)c1c(C)[nH]n(-c2ccccc2)c1=O
  ·, ·, ·, i, 1.1, 104, ·
#62 CC1CCCC(C)N1C(=O)CSc1nnc(NC(=O)Cc2cccs2)s1 (centres undefined)
  -4, 30, 137, i, 0.95, 110, -1.3
#63 CSc1cc(-c2ccccc2)n(Cc2ccc(Cl)cc2Cl)c(=O)c1C#N
  0, -25, 92, i, 0.92, 85, -0.8
#64 CCCC(=O)OCC(=O)Nc1ccc(N=Nc2ccccc2)cc1
  -9, -26, 138, i, 0.89, 103, 0.9
#65 Cn1c(=O)cc(SCC(=O)NCC2CCCO2)c2ccccc21 (centres undefined)
  -10, ·, ·, i, 0.83, 110, -3.3
#66 CC(=O)c1c(C)[nH]c(C(=O)Nc2ccc(Cl)c(S(=O)(=O)N3CCOCC3)c2)c1C
  5, -129, 138, i, 0.93, 107, -1.6
#67 COc1ccc(CCNC(=O)Cn2c(=O)n(-c3ccc(F)cc3)c(=O)c3sccc32)cc1OC
  -6, -7, 125, i, 0.88, 98, ·
#68 O=C(CO/N=C/c1ccccc1)N1c2ccccc2Oc2ccccc21
  5, 56, 122, i, 0.86, 111, -1.1
#69 C=CCC1(CC=C)CCCN1Cc1nc(COc2ccccc2)no1
  ·, ·, ·, i, 1, 106, ·
#70 Cc1oc2c(CN3CCCC3)c(O)ccc2c(=O)c1-c1ccc(Br)cc1
  3, -15, 94, i, 0.69, 114, -1.2
#71 Cn1c(CO)cnc1SCC(=O)c1ccc(Br)cc1
  8, -12, 124, i, 1.1, 106, ·
#72 CN(Cc1nc(Cc2cccc(F)c2)no1)CC1CCOCC1
  -4, ·, ·, i, 1, 101, ·
#73 CCOC(=O)/C(C#N)=C/c1ccc(-c2ccsc2C(=O)OC)o1
  -4, -26, 97, i, 0.96, 94, -1.4

Compound activity (PubChem BioAssay)
